High-throughput results from PubChem BioAssay.
NPYLR7 ag = activates Aedes aegypti NPYLR7 receptor | HEK293T NPYLR7/Galpha15, GCaMP6s calcium fluorescence | activation, % at 10 µM | actives 0.15% (n = 270,000) | AID 1259423; in the data active means activation above about 40%;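 further: 0% = vehicle and 100% = reference agonist at the receptor; some compounds past the cut are filed as inactive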
NPYLR7 ag max-min = recorded beside NPYLR7 ag, whose call it bears; activation, %; measured here: Max-Min RFU normalised activation; some inactives read as strong as hits;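 span of the calcium signal over five minutes; 0% = vehicle and 100% = native peptide agonist; compound fluorescence can raise it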
* = called active by the depositor; & = joins results of further samples. These rows are one share of the data; count on the stated rates, not on these rows.

SMILES | NPYLR7 ag | NPYLR7 ag max-min
Cc1nc(-c2ccc(C(=O)N(C3CC3)C(C)c3ccccn3)cc2)n[nH]1 (stereo not given) | 9 | 7
OCc1ccccc1-n1ncc2cccnc21 | 20 | 8
O=C1N(Cc2ccccn2)C(=O)C2(CCN(Cc3ccc4ncccc4c3)CC2)N1Cc1ccccc1 | 7 | -5
CS(=O)(=O)c1ccccc1C(=O)N1CCCCC1C(=O)O (stereo not given) | 4 | 0
Cn1c(=O)c(C#N)cc2c(=O)n3ccccc3nc21 | 5 | 2
OC(/C(=C/c1ccccc1)c1ccccc1)c1ccccc1 (stereo not given) | -6 | -8
Cc1ccc(Cn2c(C(=O)N3CCN(C(=O)c4ccco4)C(C)C3)cc3ccoc32)cc1 (stereo not given) | -2 | 7
Cc1nc(CSc2ccc(-c3cccc([N+](=O)[O-])c3)nn2)cs1 | 6 | 5
CNC(=O)c1ccc(S(=O)(=O)N2c3ccccc3CC2C)cc1 (stereo not given) | 3 | 1
C[C@H](CCC(=O)NC(C)(C)Cc1c[nH]c2ccccc12)[C@H]1CC[C@H]2[C@@H]3C(=O)C[C@@H]4CC(=O)CC[C@]4(C)[C@H]3CC(=O)[C@]12C | -3 | -8
O=C(CSc1nnc2sc3ccccc3n12)Nc1ccccc1Cl | -3 | -8
Cc1cccc(-n2c(C3C4CCCCC43)n[nH]c2=S)c1 (stereo not given) | -6 | -10
Cc1cc(C)c(C)c(S(=O)(=O)NCCCOCC2CC2)c1C | 15 | 7
COCCN(CC(=O)N(CCc1ccc(OC)c(OC)c1)Cc1cccs1)C(=O)Nc1c(C(C)C)cccc1C(C)C | 2 | 3
Cc1ccc(C=C(C#N)C(=O)Nc2ccccc2Cl)s1 | 4 | 6
CCSc1nnc(NC(=O)CN2C[C@H](O)[C@@H](N3CCCC3)C2)s1 | 0 | -2
COc1cccc2sc(N(Cc3cccnc3)C(=O)C3COc4ccccc4O3)nc12 (stereo not given) | -5 | -1
CC1CN(C(=O)NCCNc2ncc(Cl)cc2Cl)CCO1 (stereo not given) | 0 | 10
CCOc1cc(CC#N)cc(Cl)c1OCC(F)(F)F | 9 | 5
O=C(c1c(F)cccc1Cl)N1CCC(c2nc(-c3ccc(F)c(F)c3)no2)CC1 | -5 | -7
O=C(NCC1(c2ccccc2)CC1)N1CCC(N2CCCCC2)CC1 | 1 | 0
COc1ccc(CCN(C)S(=O)(=O)c2ccc(OC)c(N3CCN(S(=O)(=O)c4cccc(F)c4)CC3)c2)cc1OC | 29 | 15
O=C(c1ccccc1-c1ncc[nH]1)N1CCCC(N2CCN(c3cccc(Cl)c3)CC2)C1 (stereo not given) | 2&3 | 1&3
Cc1nc(Nc2cc(F)ccc2F)c2c3c(sc2n1)CCC3 | 17 | 19
CCN(CC)CCN(C)C1CCN(CC)CC1 | -9 | -14
COC(=O)c1sc2nc(C3CC3)[nH]c(=O)c2c1CC(=O)O | 1&22 | 10&23
COc1ccccc1CCC(=O)Nc1ccc2c(c1)CN(C(=O)Cc1ccn(C)c1)CC2 | 32 | 35
COC(=O)N1CCc2cc(NC(=O)c3ccc(C(F)(F)F)cc3)ccc21 | 5 | 3
CS(=O)(=O)NN1C(=O)c2ccccc2NC12CCCC2 | -1 | 34
O=C(Nc1ccccc1)c1ccc(Cl)s1 | -9 | -11
CC1(C(=O)NS(=O)(=O)c2ccccc2)CCN1C(=O)C1CCCCC1 (stereo not given) | 2 | -2
Cc1c(C(=O)NCCO)nnn1-c1ccc2noc(-c3ccc(Cl)cc3)c2c1 | 4 | 10
CC(C)CC(=O)NCCCn1nc(-c2cccnc2)ccc1=O | 10 | 2
O=C(C=Cc1ccc(-c2ccc([N+](=O)[O-])cc2)o1)c1ccc(N2CCOCC2)cc1 | -2 | -7
O=c1oc2cc(S(=O)(=O)N3CCCC3)ccc2n1Cc1ccc(F)cc1 | 0 | 0
CCCN1C(=O)COCc2cc(-c3cnn(C)c3)ccc21 | 6 | 2
O=C(NCc1ccco1)C1COC2(CCN(C(=O)c3ccc(Cl)cc3)CC2)N1C(=O)c1cccc(F)c1 (stereo not given) | 6 | 13
Cc1ccsc1[C@@H]1CCN(C(=O)CCc2n[nH]c3c2CCCC3)C[C@H]1O | -1 | -1
CCCN(Cc1c(-c2ccccc2F)noc1N1CCOCC1)C(=O)c1cccc(OC)c1 | -5 | 3
Oc1ccccc1Oc1ccc(Oc2ccccc2O)cc1 | 5 | 2
Cn1c(=O)c2c(nc(Br)n2Cc2cccc(Cl)c2)n(C)c1=O | -3 | -2
Nc1ccc(S(=O)(=O)Nc2ccc(Cl)nn2)cc1 | -13&-4&0 | -15&-8&-2
CC1CCCCN1Cc1nc2c(c(=O)n(C)c(=O)n2C)n1CCc1ccccc1 (stereo not given) | 4 | 2
COc1ccc(C(=O)Nc2c(N)nc(SCC(N)=O)[nH]c2=O)cc1OC | -1 | 0
CC(C)(C)C(=O)CSc1ncnc2sc3c(c12)CCCC3 | 3 | 0
Oc1ccc(-c2nc3c4cnn(-c5ccccc5Cl)c4ncn3n2)cc1 | -5 | -1
CCOc1ccc(S(=O)(=O)c2cn(Cc3ccccc3C)c3ccc(OC)cc3c2=O)cc1 | -6 | -11
CCc1cccc2c1N(S(=O)(=O)c1ccc3c(c1)N(CC(=O)O)C(=O)CO3)CC2 | -2 | -3
CCOC(c1ccccc1)c1ccc2c(c1)CN(C(=O)CSc1ccncc1)CCO2 (stereo not given) | 2 | 0
CC(C)Oc1nnnn1-c1ccccc1 | 1 | 2
O=C(O)c1ccc2c(=O)n(-c3ccccc3F)c(=S)[nH]c2c1 | 6 | 2
CN1CCN(CCC(F)(F)F)CC12CCN(C(=O)CC1CCCC1)CC2 | 23 | 13
NC(=O)C1(c2ccccc2)CCN(C(=O)c2ccc(F)cc2F)CC1 | 24 | 10
CC(=O)NCc1nnc2c3ccccc3c(-c3ccccc3)nn12 | 15 | 5
OCC1(CNC2CCC3(CCNCC3)CC2)CCOCC1 | 11 | 7
Cc1cccc(C)c1NC(=O)N1CCc2nc(Cc3ccccc3F)[nH]c(=O)c2C1 | 0 | 10
CCn1c(=O)[nH]c(=O)c2ccc(-c3ccc(Cl)cc3)nc21 | -6 | -8
COc1ccccc1OCCN1CCC(C(=O)NC(c2ccc3c(c2)OCO3)c2ccccn2)CC1 (stereo not given) | 11 | -1
COc1ccc(-n2ccc3c(cnc4nc(C(F)(F)F)nn43)c2=O)c(OC)c1 | 2 | 5
COc1ccc(C(=O)NCCNC(=O)[C@H]2CCCN2C(=O)c2cccc(F)c2)cc1 | -1 | 1
(list continues)
SMILES | NPYLR7 ag | NPYLR7 ag max-min
O=C(NCCSCc1ccccc1)c1ccc(-c2cc(-c3ccc(Cl)cc3Cl)[nH]n2)cc1 | 0 | 10
O=C(Cn1nc2n(c(=O)c1=O)CCN2c1ccc(F)cc1)N1CCOCC1 | -4 | -4
Cc1cc(C(=O)N(Cc2ccccn2)c2nc3ccc(F)cc3s2)on1 | 7 | 6
O=C1CCc2cc(-c3csc(N4CCCC4)n3)ccc2N1 | -1 | -3
C#Cc1cccc(N(C)S(=O)(=O)c2cc(C(=O)O)c(F)cc2Cl)c1 | -1 | -2
COc1ccc(C(CC(=O)NCc2n[nH]c3c2CCC3)c2ccccc2)cc1 (stereo not given) | 7 | 5
CCc1ncc(CN2CCC(C(=O)Nc3ccc(Oc4ccccc4F)cc3)CC2)cn1 | -6 | -7
Cc1ccccc1CN(CC(=O)N(CCc1c[nH]c2ccccc12)Cc1ccc(Cl)c(Cl)c1)C(C)C | 21 | 29
O=c1ccc(-c2ccc(Cl)cc2)nn1CCNS(=O)(=O)c1cccnc1 | -3 | -4
O=C(CCN1CCCCO1)N1CCC2(CCCN(Cc3ccc(F)cc3)C2)C1 (stereo not given) | 3 | 0
COc1ccc(N2CCN(C(=O)c3ccc[nH]c3=S)CC2)cc1 | 8 | 3
Cc1ccc(C(=O)N2CC(=O)N3CC(C)c4ccccc4C3C2)c(F)c1F (stereo not given) | -1 | 13
Cc1nc(CN)cc(NCCCN2CCCC2=O)n1 | 7 | 3
c1ccc(CCc2nc(Cc3cccnc3)n(-c3ccccn3)n2)cc1 | -6 | -10
CCc1nc(Nc2ccc(OC)cc2)c2ccc(Cl)cc2n1 | 18 | 21
CCc1ccc(CN2CCC(N3CCC(C(=O)NCCc4ccccc4)CC3)CC2)o1 | 1 | 0
CC(=O)O[C@@H](C)C(=O)N1CCN(c2ncccc2C(=O)NCc2cccs2)CC1 | 1 | -2
C=CCN(Cc1nccn1Cc1ccccc1C)C(=O)CC(C)C | 6 | 11
O=C(c1sccc1Cl)N1CCC(n2cnc3ccccc32)CC1 | -9 | -14
CN(C)CCCN(C(=O)CN1C(=O)c2ccccc2C1=O)c1nc2cc3c(cc2s1)OCO3 | -2 | -3
COC(=O)C1CCN(C(c2cccc(Cl)c2)C2Sc3nc(C)nn3C2=O)CC1 (stereo not given) | -3 | -5
CCN(c1ccccc1)S(=O)(=O)c1ccc(Cl)c(NC(=O)c2ccc(=O)[nH]n2)c1 | 1 | -1
CCCc1ccc(CN2CCN(c3cncc(C(=O)N(C)C)n3)CC2)o1 | 7 | 5
COCCNC(=O)[C@@]1(OCc2ccccc2F)CC(OCc2ccccc2C#N)[C@H](O)[C@H](O)C1 (stereo not given in full) | 20 | 27
O=C(CN1CCCC(Oc2ccc(Cl)cc2)C1)Nc1ccccc1C(=O)Nc1ccccc1 (stereo not given) | 1 | 11
Cc1c(C(=O)N2CCOCC2)cnn1C(C)(C)C | -3 | -1
COC1CCN(C(=O)c2coc(COc3cccc(C(F)(F)F)c3)n2)CC1 | 4 | 2
CC(=O)c1cc(CN2CCCC(CCc3ccccc3C(F)(F)F)C2)n(C)c1 (stereo not given) | 2 | 20
COC(=O)C1(C(=O)N2CCCCC2CN2CCOCC2)CC1 (stereo not given) | -1 | 35
O=C(c1ccco1)c1ccc(Cl)s1 | -1 | -7
CCN(CC)c1ccc(NC(=O)c2sc3nc(-c4ccccc4)cn3c2C)cc1 | -7 | -8
O=C(Nc1ccnn1C1CCN(Cc2ccc3nonc3c2)CC1)c1ccccc1 | 5 | 3
Cc1cc(C2CCC2)nc(N2CCc3nc(N)sc3C2)n1 | -2 | -2
CC1CCN(S(=O)(=O)c2ccc(-c3nc(C#N)c(N4CCc5ccccc5C4)o3)cc2)CC1 | 1 | 12
O=C(C1CCCC1)N(Cc1cccc(Cl)c1)CC1CC(c2ccccc2F)=NO1 (stereo not given) | 7 | 19
CCOC(=O)CNC(=O)CSc1nnc(-c2ccccc2)c2sc(C)nc12 | 7 | 4
O=C(CCc1ccccc1Cl)N1CCC(O)CC1 | -3 | -3
Cc1onc(-c2c(Cl)cccc2Cl)c1C(=O)Nc1cccc(-c2cccc(-c3ccc4c(c3)NC(=O)CO4)n2)c1 | 2 | 0
Cc1nc(NCCC23CC4CC(CC(C4)C2)C3)c2c3c(sc2n1)CCC3 | -1 | -4
Oc1ccc(N=Cc2nc(-c3ccccc3)oc2O)cc1 | -6 | -10
CCOC(=O)C1CCN(C(=O)CCc2csc(NC(=O)c3ccc[nH]c3=O)n2)CC1 | -13 | -17
CC(=O)c1cc(CN2CCC3(CC2)N=C(c2ccccn2)NC3=O)cs1 | 5 | 2
COc1ccc(C(=O)NCCn2nc(C)cc2C)cc1OC1CCN(C(C)=O)CC1 | 1&7 | -4&4
CSc1ccc(C2CC(=O)Nc3c2c(C)nn3-c2ccc3nncn3n2)cc1 (stereo not given) | -1 | -3
Clc1ccc(C2c3cccn3CCCN2Cc2ccc3c(c2)OCCO3)cc1 (stereo not given) | -2 | 2
CC=CCn1c(=O)c2c(nc3n(-c4ccccc4O)c(C)cn23)n(C)c1=O | 1 | -3
COc1ccc(Cl)cc1C(=O)N1CCN(C2=NN=C(c3cccs3)CS2)CC1 | 0 | -1
O=C(NC1c2ccccc2-c2ccccc21)c1cn[nH]n1 | 4 | 1
